Assay outcomes as filed in PubChem BioAssay.
Ecoli growth: E. coli growth inhibition; AID 1053175; OD600 absorbance (concentration not given with the values); 330,000 compounds, 0.21% hits; Escherichia coli growth, OD600, 23 h; hits give low values;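 active means OD600 absorbance below the run mean of sample wells minus 3.6 SD, in any replicate, cut at about 0.56 in these data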;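 further: stock transfer was 300 nL into about 60 µL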
A1 inh: inhibitors of the anti-apoptotic protein A1, read as caspase activation; 330,000 compounds, 0.066% hits; caspase activation, % (concentration not given with the values); MEF A1-2A-BIM cells, Caspase-Glo 3/7 luminescence, 3 h; percent of clofoctol response, vehicle zero;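 active means over half of replicate activation scores above 10%, or exactly half above 10 with the replicate mean above 10; inconclusive means replicate mean below 10 yet half the replicates above 10; inactive means over half of replicates below 10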;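 further: wells of about 30 µL received 50 nL stock; many hits fall short of the cut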
UCH37 inh: inhibitors of human deubiquitinating enzyme UCH37. Q9Y5K5. purified proteasome/UCH37, Ub-AMC cleavage fluorescence. inhibition, % (test concentration not listed). 330,000 compounds, 0.33% hits. AID 588478;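 active means mean of two replicates above 20%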;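 further: 0% = compound-free wells with enzyme and 100% = wells lacking proteasome; stock transfer was 100 nL into about 20 µL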
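Test system – human UCH37 enzyme supplied as purified proteasome complex · Incubation – 30 min preincubation with enzyme, 25 min cleavage at room temperature · Detection – AMC fluorescence from Ub-AMC cleavage, excitation 355 nm, emission 460 nm · Benchmarks – no-proteasome wells (full inhibition) and compound-free wells (no inhibition)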
HNF4A DNA FP: change in binding of human HNF4 alpha to DNA; HNF4a-FITC DNA binding, fluorescence polarization, 1 h; 360,000 compounds, 0.3% hits; P41235; activity change, % at 10 µM; in the data active means activity change above about 30%, passing the limit was not always enough;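 further: controls were the assay level and a saturating level of protein; the project sought stronger binding though the title names inhibitors; some compounds called inactive have numbers as strong as hits; positive values seem to mean higher polarization but the record does not say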
LANA-H2A inh: blocks KSHV LANA binding to histone H2A/H2B. cell-free LANA-H2A/H2B peptide, fluorescence polarization. inhibition, % (test concentration not listed). 320,000 compounds, 0.6% hits. AID 2629; in the data active means inhibition mostly above about 10%, no sharp cut-off; inactive means mostly below about 6.7%;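 further: stock transfer was 7.5 nL into about 10 µL; 0% = median of vehicle wells and 100% = median of positive control wells; one replicate is shown; the record names a cut of 25% in any replicate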
Target sequence (Q9QR71 whole entry, looked up): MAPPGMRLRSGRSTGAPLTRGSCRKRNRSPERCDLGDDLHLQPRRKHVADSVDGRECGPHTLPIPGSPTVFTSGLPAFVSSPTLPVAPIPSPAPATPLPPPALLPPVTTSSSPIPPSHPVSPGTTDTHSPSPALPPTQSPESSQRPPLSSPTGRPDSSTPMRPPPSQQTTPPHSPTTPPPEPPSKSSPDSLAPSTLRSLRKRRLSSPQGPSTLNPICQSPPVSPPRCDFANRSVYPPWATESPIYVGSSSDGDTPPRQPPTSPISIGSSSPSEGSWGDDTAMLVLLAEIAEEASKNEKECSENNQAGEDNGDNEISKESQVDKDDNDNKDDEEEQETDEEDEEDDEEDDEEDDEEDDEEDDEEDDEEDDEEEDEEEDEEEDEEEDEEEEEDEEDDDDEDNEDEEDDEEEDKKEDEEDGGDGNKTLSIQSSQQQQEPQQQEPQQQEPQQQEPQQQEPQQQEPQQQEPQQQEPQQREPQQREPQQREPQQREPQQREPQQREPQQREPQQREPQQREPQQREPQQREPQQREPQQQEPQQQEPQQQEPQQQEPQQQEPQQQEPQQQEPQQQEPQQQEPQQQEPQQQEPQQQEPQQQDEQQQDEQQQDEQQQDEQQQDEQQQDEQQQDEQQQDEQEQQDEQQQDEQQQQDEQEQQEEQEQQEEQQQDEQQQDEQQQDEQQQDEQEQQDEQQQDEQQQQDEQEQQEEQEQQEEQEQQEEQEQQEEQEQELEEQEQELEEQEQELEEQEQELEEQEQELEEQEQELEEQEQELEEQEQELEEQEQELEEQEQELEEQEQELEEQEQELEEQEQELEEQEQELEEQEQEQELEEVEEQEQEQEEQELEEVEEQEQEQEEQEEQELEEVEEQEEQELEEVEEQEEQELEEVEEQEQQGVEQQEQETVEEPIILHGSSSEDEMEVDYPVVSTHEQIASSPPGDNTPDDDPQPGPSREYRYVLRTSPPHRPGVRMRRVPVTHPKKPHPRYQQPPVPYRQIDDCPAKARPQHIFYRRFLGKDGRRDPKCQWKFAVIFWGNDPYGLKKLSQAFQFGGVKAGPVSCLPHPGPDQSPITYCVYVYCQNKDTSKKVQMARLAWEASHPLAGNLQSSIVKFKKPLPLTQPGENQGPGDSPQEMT
Beta2AR agonist: human beta-2 adrenergic receptor agonism by FAP. P07550. 340,000 compounds, 0.43% hits. Am2.2-beta2AR cells, FAP receptor internalization, flow cytometry; reference of the scale not given here. response, % (test concentration not listed);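 active means response above a set limit, near 3 SD of response in nonfluorescent compounds, cut at about 42% in these data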;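 further: stock transfer was 100 nL into about 11 µL; a reference agonist was the positive control; negative values mostly stem from fluorescent compounds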
Vif A3G: HIV-1 Vif–A3G interaction blockers – biochemical, TR-FRET, GST-Vif 1-94, biotin-A3G peptide, dose response retest, primary screen (AID 1117319); TR-FRET GST-Vif / biotin-A3G peptide binding; higher % means a stronger effect; test concentration not given here; strong numbers were not always called active; one-dose inhibition, %; IC50 in µM for titrated hits; 260,000 compounds, 0.57% hits;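 active means above the screen mean plus three standard deviations and confirmed in dose response; inconclusive means results disagree or hit not tested in dose response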;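 further: Vif residues 1-94 fused to GST binding biotinylated APOBEC3G peptide 110-148; 0% = full assay without inhibitor and 100% = GST in place of GST-Vif; retest series ran down from 100 µM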
Numbers without * were called inactive; ? = inconclusive; . = not tested or not shown.

The opening 2 records, ahead of the listing:
Results follow in this order: Ecoli growth | A1 inh | UCH37 inh | HNF4A DNA FP | LANA-H2A inh | Beta2AR agonist | Vif A3G
(1) COC(=O)C1=C(C(=O)OC)SC2(S1)C(C(=O)OC)=C(C(=O)OC)SC1=C2c2cccc(C)c2NC1(C)C
    0.68 | 0.6 | 11 | 0.5 | 2.9 | 22 | 2%
(2) COC(=O)c1ccccc1NC(=O)N1CCN(S(C)(=O)=O)CC1
    0.66 | -0.3 | -5.6 | 0.7 | -3.7 | 3 | .

This part in full, from the first entry:
Results follow in this order: Ecoli growth | A1 inh | UCH37 inh | HNF4A DNA FP | LANA-H2A inh | Beta2AR agonist | Vif A3G
(1) COC(=O)C1=C(C(=O)OC)SC2(S1)C(C(=O)OC)=C(C(=O)OC)SC1=C2c2cccc(C)c2NC1(C)C
    0.68 | 0.6 | 11 | 0.5 | 2.9 | 22 | 2%
(2) COC(=O)c1ccccc1NC(=O)N1CCN(S(C)(=O)=O)CC1
    0.66 | -0.3 | -5.6 | 0.7 | -3.7 | 3 | .
(3) O=C(O)c1ccc(N=Nc2c(O)ccc3ncccc23)cc1
    . | -8.8 | . | -24 | 0.4 | 16 | .
(4) Cc1ccc(NC(=O)Cn2nc(C)c(S(=O)(=O)N(C)C)c2C)cc1C
    0.68 | -0.2 | 2.0 | -5.9 | 1.6 | -11 | 26%
(5) COC(=O)c1cccc(N2C(=O)c3ccccc3S2(=O)=O)c1
    0.72 | -0.3 | 5.2 | -1.6 | -1.9 | 12 | 4%
(6) CC(C)=NOC(=O)c1c(C)noc1-c1snnc1C
    0.68 | 0.6 | 3.4 | 0.1 | 3.4 | -9 | -9%
(7) CC(=O)OCC1O[C@@H](O[C@@H]2C[C@H]3C(C)(C)[C@H](OC(C)=O)CC[C@]3(C)[C@H]3CC[C@]45C[C@]4(CC[C@H]5[C@@H](C)C[C@@H](O)[C@H](O)C(C)(C)O)[C@@]32C)[C@H](O)[C@@H](O)[C@@H]1O (stereo partly specified)
    . | ? | . | . | -5.5 | . | 11%
(8) Cc1ccc(C(=O)Nc2cc(Cl)ccc2OC(=O)c2ccc(C)cc2)cc1
    0.71 | -8.1 | 0.1 | . | 7.7 | . | 12%
(9) O=S(=O)(c1cnc[nH]1)N1CCN(C(c2ccc(F)cc2)c2ccc(F)cc2)CC1
    0.7 | 0.8 | 1.9 | -2.0 | -9.2 | -5 | .
(10) Cc1nc(SCC(=O)NCc2ccco2)c2c(C)c(C)sc2n1
    0.71 | -0.2 | 5.0 | -1.1 | 1.2 | -7 | 5%
(11) COc1cc(NC(=O)CSc2nc(=O)n(CCCN3CCOCC3)c3c2CCC3)cc(OC)c1
    0.7 | -0.8 | 1.6 | 0.1 | -6.3 | 0 | -9%
(12) Cc1ccc(NC(=O)CN2C(=O)NC3(CCc4ccccc43)C2=O)cc1Cl (stereo unspecified)
    0.8 | 0.6 | 6.1 | -1.6 | 5.4 | 3 | -2%
(13) Cc1ccc(C(C)C)c(OC/C(O)=C(\C#N)c2nc3ccccc3[nH]2)c1
    0.72 | -0.6 | 4.1 | 3.4 | 3.0 | 15 | 7%
(14) COc1ccc2c(c1)C(=O)Nc1cc(Cl)ccc1N2
    0.63 | -0.1 | 4.1 | 3.3 | 2.8 | -5 | .
(15) O=[N+]([O-])c1cc(-c2ccn[nH]2)ccc1Cl
    0.66 | 0.0 | 2.8 | 2.5 | 6.1 | 7 | 13%
(16) O=C(CSc1nnc(-c2ccccn2)n1Cc1ccccc1)N1CCCC1
    0.71 | -0.5 | 4.8 | -0.7 | -7.5 | -13 | 2%
(17) CC(C)(C)OC(=O)NCCCCCc1cn([C@@H](CO)C(=O)NCCCCCCCCCCC(=O)N2CCN(C(=O)OC(C)(C)C)CC2)nn1
    . | -0.1 | 0.7 | -2.3 | -2.5 | 25 | .
(18) O=C(CSc1ccc(Cl)cc1)N1CCOCC1
    0.74 | -0.3 | 1.6 | 0.9 | 7.7 | 1 | 32%
(19) O=C(NCCCN1CCCC1)c1ccc(Cn2c(=S)[nH]c3ccc(Br)cc3c2=O)cc1
    0.68 | -1.1 | 3.6 | . | -5.8 | . | -6%
(20) COc1cccc(CN2CCN(Cc3cc4ccccc4o3)CC2CCO)c1 (stereo unspecified)
    0.7 | 0.2 | 6.1 | 3.3 | 2.4 | 6 | .
(21) Oc1ccccc1Cn1nnc2ccccc21
    0.59 | 0.0 | 0.5 | 3.0 | 1.0 | -9 | .
(22) O=C(CSc1ccccc1)NCC(c1ccco1)N1CCCCC1 (stereo unspecified)
    0.7 | 0.9 | -1.5 | 1.6 | 28* | 4 | 9%
(23) O=C(NC1CC1)C1=C[C@@H](c2ccc(C(F)(F)F)cc2)C[C@@H](OCc2ccc(CO)cc2)O1
    . | 0.0 | 0.0 | -0.6 | -3.6 | -4 | .
(24) CCOC(=O)c1ccc(N/C(=N/S(=O)(=O)c2ccccc2)c2ccccc2)cc1
    . | -0.6 | . | 1.8 | 2.8 | -3 | 4%
(25) COC(=O)c1cc[n+](CC(=O)c2ccccc2)cc1
    0.7 | 0.1 | 23* | 0.6 | 1.8 | 0 | 12%
(26) O=S(=O)(c1ccc2nc(-c3ccccc3)[nH]c2c1)N1CCN(c2cccc(Cl)c2)CC1
    0.73 | -1.0 | 1.9 | 3.7 | -4.5 | 4 | -3%
(27) CCN(CC)C(=O)[C@H]1C[C@H](CC(=O)NC(C)(C)C)C(=O)N2CCc3c([nH]c4cc(CCC(=O)N(C)C)ccc34)[C@]12C
    0.72 | . | 0.7 | -3.2 | . | 4 | 0%
(28) CCCCNC(=O)[C@@H]1CCCN1S(=O)(=O)c1cccc2cccnc12
    . | 0.8 | 2.5 | -2.4 | -6.2 | -3 | .
(29) CC1CC(c2ccccc2)n2nc(NC(=O)CCc3ccccc3)nc2N1 (stereo unspecified)
    0.64 | 0.1 | -0.3 | -2.6 | 0.7 | -4 | 5%
(30) O=C(COc1ccccc1-c1ccccc1)NNC(=O)NC1CCCCC1
    0.69 | 0.6 | 0.2 | -2.9 | 7.4 | -7 | -2%
(31) CN1OC(COC(=O)c2ccc(Cl)cc2Cl)CC1c1ccccc1 (stereo unspecified)
    0.66 | -0.1 | 1.4 | 1.1 | 2.9 | -2 | 3%
(32) Cc1cc(C(C)(C)C)oc1C(=O)N(CC(=O)NC1CCCC1)c1cccc(C(F)(F)F)c1
    0.73 | -0.5 | 2.8 | 1.6 | 0.3 | -1 | 0%
(33) COc1cccc(-c2cc(C(=O)Nc3ccc(OC)c(OC)c3)no2)c1
    0.76 | 0.0 | 0.2 | -1.9 | -5.6 | -1 | 28%
(34) COc1ccc(CN(C)C(=O)COC(=O)c2c(-c3ccccc3Cl)noc2C)cc1
    0.69 | 0.3 | 1.0 | 0.7 | -2.2 | 5 | 4%
(35) C#CCOCCOCCOCCNc1nc(N2CCN(C(=O)CCCCCCCCCCNC(=O)Cn3cc(CCCCCN)nn3)CC2)nc(N2CCN(C(=O)CCCCCCCCCCNC(=O)Cn3cc(CCCCCN)nn3)CC2)n1
    . | 1.9 | . | 38* | -20 | 45* | .
(36) O=C(Cc1ccccc1)N1CCN=C1SCc1cccc([N+](=O)[O-])c1
    0.69 | -1.4 | 3.2 | 1.2 | 1.2 | 6 | -4%
(37) O=C(Nc1cnn(Cc2ccc(Cl)cc2)c1)c1cccs1
    0.7 | -0.7 | 5.1 | 0.7 | 3.7 | -12 | .
(38) COc1ccc(C(=O)Nc2ccccc2N2CCCCC2)cc1[N+](=O)[O-]
    0.74 | 1.0 | 1.3 | 0.5 | 3.8 | 3 | .
(39) CCOC(=O)c1ccc(-c2ccc(/C=N/NC(=O)Cc3nnc(N)s3)o2)cc1
    . | 0.5 | . | 7.8 | 0.8 | 20 | 29%
(40) COc1ccccc1NS(=O)(=O)c1ccc(C(=O)N2CCCCCC2)cc1
    0.69 | -0.4 | -1.1 | 4.2 | 1.5 | 0 | 3%
(41) CCCN1C(=O)C2(OCCO2)c2cc(Cl)ccc21
    0.69 | 0.7 | 6.8 | 2.4 | 1.0 | 11 | .
(42) C=CCNC(=S)NCC=C
    0.76 | 0.7 | 0.4 | -0.8 | 1.1 | 21 | -10%
(43) COc1ccc(OC)c(/C=N/NC(=O)c2cnccn2)c1
    . | -0.2 | . | 0.5 | 5.8 | -2 | 7%
(44) NS(=O)(=O)c1ccc(NC(=O)C(Sc2ccccc2)c2ccccc2)cc1 (stereo unspecified)
    0.72 | 0.3 | 4.0 | 1.7 | 1.7 | 3 | .
(45) C[C@H](CO)N1C[C@H](C)[C@H](CN(C)Cc2ccc(Oc3ccccc3)cc2)Oc2ccc(NC(=O)Nc3cccc4ccccc34)cc2CC1=O
    0.77 | -0.6 | -0.3 | 2.5 | 5.4 | -1 | .
(46) CC(C)n1c(SCC(=O)c2ccc3c(c2)OCCO3)nc2c1c(=O)n(C)c(=O)n2C
    0.71 | -1.0 | -2.0 | . | -2.3 | . | .
(47) O=C(CC1CCCC1)Nc1ccc(Cl)c(S(=O)(=O)N2CCOCC2)c1
    0.65 | 1.7 | 0.7 | 3.2 | 2.0 | -4 | -3%
(48) S=C(NCC1CCCO1)N1CCN(c2nc(-c3ccc(Cl)cc3)cs2)CC1 (stereo unspecified)
    0.68 | -0.3 | 2.4 | 2.1 | -1.4 | 3 | .
(49) c1csc(-c2nn3c(Cn4nnc5ccccc54)nnc3s2)c1
    0.75 | -0.2 | -4.9 | 0.4 | 4.5 | 11 | -14%
(50) CCOC(=O)C1=CNS(=O)(=O)NC1c1ccc(C(F)(F)F)cc1 (stereo unspecified)
    0.72 | . | -5.1 | -2.2 | . | -2 | -7%

The list goes on:
Results follow in this order: Ecoli growth | A1 inh | UCH37 inh | HNF4A DNA FP | LANA-H2A inh | Beta2AR agonist | Vif A3G
(51) Cc1cccc(N2CCN(S(=O)(=O)c3c(C)[nH]c(C)c3C(=O)N3CCCC3)CC2)c1C
    0.66 | 1.0 | 1.8 | -0.6 | 1.6 | 5 | .
(52) C=CCOc1ccc(Br)cc1CNC(C)(C)C
    0.66 | 0.5 | 2.9 | 0.3 | 2.3 | 3 | 18%
(53) COc1ccc(OCCCn2cccc2/C=C2/C(=N)N3OC(C)=CC3=NC2=O)cc1
    0.67 | -0.7 | 4.4 | 0.9 | -2.2 | 0 | -4%
(54) O=C(CN1CCOCC1)NNC(=S)Nc1ccccc1
    0.69 | 0.8 | -2.0 | -2.4 | 0.6 | 14 | 10%
(55) CC(=O)Nc1ccc(NC(=O)C(C)OC(=O)CCC2CCCC2)cc1 (stereo unspecified)
    0.67 | 0.0 | 0.8 | 2.3 | 6.9 | -1 | 4%
(56) CCS(=O)(=O)N1Cc2ccccc2CC1C(=O)Nc1nc2ccccc2s1 (stereo unspecified)
    0.68 | -0.6 | 1.6 | -5.7 | 0.1 | -13 | -4%
(57) COc1ccc(NC(=O)COC(=O)Cc2ccc(-c3ccccc3)cc2)c(OC)c1
    0.68 | 0.5 | -1.4 | 2.2 | . | 2 | -2%
(58) CC(=O)NC1=NN(C(C)=O)C(C)(c2cccc([N+](=O)[O-])c2)S1 (stereo unspecified)
    0.73 | 0.4 | 1.4 | -1.4 | -0.2 | -12 | 1%
(59) CCNS(=O)(=O)c1ccc(-c2ccc(-n3cnnn3)cc2)cc1
    0.72 | 0.1 | -1.1 | 7.9 | -5.0 | 10 | 65%
(60) Cc1cc2nn(-c3cccc4ccccc34)nc2cc1NC(=O)c1cccs1
    0.74 | 0.1 | -135 | 4.3 | 1.8 | 3 | 8%
(61) CC(=O)c1ccc(-c2ccc(Cn3c(C)nc4cc(N)c(C)nc43)cc2)cc1
    0.6 | -1.5 | -4.5 | 2.8 | -3.4 | 5 | -7%
(62) C(=C\c1ccccc1)/CN1CCN(Cc2nc(Cc3ccccc3)no2)CC1
    0.65 | 1.0 | 4.0 | -2.8 | 0.5 | 1 | 24%
